Compound activity as filed in PubChem BioAssay.
Calb biofilm kill – mixtures killing C. albicans biofilm; inhibition, % at 7.6 µM; C. albicans biofilm persisters + clotrimazole, fluorescence viability; primary screen in compound mixtures of four per well; AID 1242; 0.02% of 120,000 active;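 active means inhibition above 30.3% in the primary screen of four-compound pools, then above 30% when the compound was retested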;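 further: compounds exposed to preformed 24 h biofilms for 48 h; the number belongs to the whole pool; some results filed as inactive read as strong as hits; inactives centre near 12; 0% = biofilm with clotrimazole alone and 100% = kill control; retested singly at about 60 µM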
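Incubation: 24 h biofilm formation, then 48 h compound exposure, 37 °C | Material: C. albicans biofilms | Buffer or medium: RPMI/MOPS medium, pH 7.0 | Measured by: 2-h Alamar Blue fluorescence, 535/590 nm excitation/emission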
* marks the source's active call; other numbers are inactive results. A portion of the library; the hit share may differ from the screen's.

Start of the listing, in advance (five entries):
SMILES | Calb biofilm kill
O=C(N/N=C\c1ccc(Oc2ccccc2)cc1)c1csnn1 | 17.9
CC(C)CCN1CCN(Cc2ccoc2)CC1CCO (stereo unspecified) | 19.0
COc1ccccc1C(=O)NNC(=O)c1ccc(Cl)cc1 | 6.8
CCNS(=O)(=O)c1ccc(-c2ccc(-n3cnnn3)cc2)cc1 | 29.9
O=c1[nH]c2ccc(Cl)cc2c(O)c1Cc1ccccc1 | -12.3

Main list, from the first entry:
SMILES | Calb biofilm kill
O=C(N/N=C\c1ccc(Oc2ccccc2)cc1)c1csnn1 | 17.9
CC(C)CCN1CCN(Cc2ccoc2)CC1CCO (stereo unspecified) | 19.0
COc1ccccc1C(=O)NNC(=O)c1ccc(Cl)cc1 | 6.8
CCNS(=O)(=O)c1ccc(-c2ccc(-n3cnnn3)cc2)cc1 | 29.9
O=c1[nH]c2ccc(Cl)cc2c(O)c1Cc1ccccc1 | -12.3
COc1cc(/C=C(\C#N)C(=O)NC2CCCCC2C)ccc1OS(=O)(=O)c1ccc(C)cc1 (stereo unspecified) | 0.0
C(=C/c1nccc2c1[nH]c1ccccc12)/c1ccc2c(c1)OCO2 | 13.4
O=C(COC(=O)CCc1nc2ccccc2n1-c1ccccc1)Nc1cccc(Cl)c1 | -7.8
Cn1c(N)c(C(=O)COC(=O)C2CCCC2)c(=O)n(C)c1=O | 5.2
O=C(Nc1nc(-c2ccccn2)cs1)c1ccc(S(=O)(=O)N2CCCCC2)cc1 | 21.2
CSCCC(NC(=O)OCc1ccccc1)C(=O)O (stereo unspecified) | 9.2
COC(OC)c1nc(SCC(=O)Nc2cccc(Cl)c2)ncc1C(=O)O | 3.6
Cc1nc(N2CCOCC2)nc(OCCN2CCOCC2)c1[N+](=O)[O-] | 17.9
Cc1ccc(CC(=O)Nc2ccc(F)c([N+](=O)[O-])c2)cc1C | -1.5
C=C(C)C(=O)N1CC2(CC(c3cccc(NC(=O)/C=C\C=C/C)c3)=NO2)C[C@H]1C(N)=O (stereo partly specified) | 14.2
CCOc1ccc(C(=O)CC(=O)C(=O)NCCc2ccc(OC)c(OC)c2)cc1 | 19.1
CCNC(=O)/C(C#N)=C/c1c(N2CCOCC2)nc2ccccn2c1=O | 12.8
COc1cccc(C(=O)NCC(=O)OCC(=O)c2ccccc2)c1 | 9.5
COc1cc(NC(=O)CCCOc2ccc(Cl)cc2Cl)c(C(=O)O)cc1OC | 32.0
CC(C)(C)C(=O)COc1ccccc1[N+](=O)[O-] | 15.4
O=c1[nH]c2ccccc2nc1/C=C(\O)c1cccs1 | 14.3
COc1ccc(Nc2nc(-c3ccccc3)nc3ccccc23)cc1S(=O)(=O)N1CCOCC1 | 18.0
CCN(C(=O)CN1CCN(c2cccc(Cl)c2)CC1)c1c(N)n(Cc2ccccc2)c(=O)[nH]c1=O | 16.2
O=C(c1cccnc1)N1CCN(C(=O)c2ccco2)CC1 | 8.9
C=CCN(c1ccc(Cl)cc1)S(=O)(=O)c1cccc(C(=O)O)c1 | 14.1
CN1CCN(C(=S)NC(CC(=O)c2ccccc2)c2ccccc2)CC1 (stereo unspecified) | 7.6
Cc1ccc(OCCNC(=O)/C=C/c2ccccc2)cc1 | 10.5
COc1ccc(C2CC(Cn3cc(C#N)c(=O)n(C)c3=O)ON2C)cc1 (stereo unspecified) | 14.5
O=C(NCc1ccc2c(c1)OCO2)C(=O)Nc1ccccc1 | 13.2
CCN(CC)c1ccc(NC(=O)c2ccccc2F)cc1S(=O)(=O)Nc1ccccc1OC | 6.1
CSC1=N/C(=C/c2cccnc2)C(=O)N1Cc1ccc(Cl)cc1 | 16.7
CCCCNC(=O)C(=O)NCCCn1ccnc1 | 2.4
Nc1ccn(Cc2cccc(F)c2)n1 | 19.3
OCCC1CN(C2CCN(c3ccccc3F)CC2)CCN1Cc1ccccc1 (stereo unspecified) | 12.6
Cc1ccnc(NC(=O)CC(c2ccccc2)c2ccccc2)n1 | 14.6
CCO[C@@H]1OC(C(=O)O)=C[C@H](c2ccc(Br)cc2)[C@H]1CCCO | -0.6
COc1ccccc1C(=O)C1CCCN(C(=O)CN2CCCCC2=O)C1 (stereo unspecified) | -3.0
COCCn1c(C)cc(C2=NNC(=NC(C)(C)C)SC2)c1C | 15.0
COc1ccc(S(=O)(=O)c2nnn(-c3cccc(OC)c3)c2N)cc1 | 19.7
CCCCCc1ccc(-c2ccc(/C=C/C(N)=O)cc2)nc1 | 8.2
O=C(COC(=O)c1cnccn1)c1cccc([N+](=O)[O-])c1 | 23.3
CCOC(=O)c1nc(NCCc2ccccc2)sc1C | 18.8
O=C1Nc2ccc([N+](=O)[O-])cc2OC1CCN1CCN(c2ccccc2)CC1 (stereo unspecified) | 15.6
Cc1ccnc(N/C=C(/NC(=O)c2ccccc2)C(=O)NN)n1 | 8.2
Cc1cc(=O)[nH]c(SCc2csc(-c3ccccc3)n2)n1 | 12.8
Cc1c2cnn(CC(=O)Nc3c(F)c(F)cc(F)c3F)c(=O)c2c(C)n1Cc1ccc(F)cc1 | 17.2
CC(C)c1ccccc1OCC(=O)NC1CCCc2ccccc21 (stereo unspecified) | 7.4
CCc1n[nH]c(=S)n1/N=C/c1ccccc1OCc1ccc(Cl)cc1 | 13.3
Cc1ccc(Sc2nc3ccc(C)cn3c(=O)c2/C=N/O)cc1 | 21.3
Cc1cc(=O)[nH]c(SCc2cn3ccccc3n2)n1 | 10.8
O=C(COC(=O)Cn1cnc2ccccc2c1=O)Nc1ccccc1Sc1ccc(Cl)cc1 | 15.1
CS(=O)(=O)N1CCN(C(=O)c2ccc(Cl)s2)CC1 | 4.9
COCCN(C(=O)CSc1nnc(-c2ccccc2F)n1C)c1c(N)n(Cc2ccccc2)c(=O)[nH]c1=O | -0.8
COC(=O)c1sc(C(=O)OC)c(C(=O)OC)c1C(=O)OC | 17.5
COCCOc1cc(-n2cccc2)c(Cl)cc1Cl | 5.0
CCOC(=O)c1sc(=S)n(C)c1NC(=O)c1ccccc1Cl | 5.6
Nc1nnc(SCC(=O)OCc2ccccc2)s1 | 5.9
O=C1CS/C(=N/N=C/c2ccncc2)N1 | 21.2
CC(C)N1CCN(Cc2ccc(Sc3nncn3C)o2)CC1CCO (stereo unspecified) | 26.1
CC(C(=O)Nc1ccc2c(c1)OCO2)N1CCN(C)CC1 (stereo unspecified) | 9.0
Further structures.
SMILES | Calb biofilm kill
CCOC(=O)C(Cc1ccccc1)C(=O)Nc1ccc(NC(=O)C(Cc2ccccc2)C(=O)OCC)cc1 (stereo unspecified) | 11.6
COCCOC(=O)c1c(C)oc2ccc(NS(=O)(=O)c3ccc(C)cc3)cc12 | 22.7
S=C(NCc1ccco1)Nc1ccc(Oc2ccccc2)cc1 | 12.9
O=C1N/C(=N\N=C\c2cccs2)SC1Cc1ccc(Cl)c(Cl)c1 (stereo unspecified) | 13.2
Nc1nc(Cl)cc(-c2ccccc2)n1 | -15.2
Cc1cc(C)n(-c2ccc(C(=O)Nc3cccnc3Cl)cc2)n1 | 8.3
CSc1nc2c(C)c(C)c(C)c(C)c2[nH]1 | -2.2
N#Cc1ccc(-c2ccc(OCC(=O)NCCCN3CCCC3=O)cc2)cc1 | 12.3
Cn1c(=O)c2c(nc(Br)n2Cc2nnc(N)s2)n(C)c1=O | 15.0
CCC(=O)NCc1cc(-c2nn(C)c(=O)c3ccccc23)ccc1OC | 17.1
C/C(=N\NC(=O)c1c(C)nc2ccccn12)c1cccc([N+](=O)[O-])c1 | 14.9
O=C(CSc1ccc2ccccc2n1)N1CCC(c2noc3ccc(F)cc23)CC1 | 15.4
Cn1c(-c2csc(-c3cccc(C(F)(F)F)c3)n2)n[nH]c1=S | 6.7
COc1ccc(C2SCC(=O)N2CCc2ccc(OC)c(OC)c2)cc1 (stereo unspecified) | 22.9
CCn1c2ccccc2c2cc(NC(=O)c3cc(OC)cc(OC)c3)ccc21 | 5.8
Cc1c(NS(=O)(=O)c2cc(Br)cc3c2N(C(=O)C2CC2)CC3)c(=O)n(-c2ccccc2)n1C | 8.2
CCCCc1ccc(NC(=O)CC(C)(C)C)cc1 | 0.4
CCOC(=O)/C(=N/Nc1ccccc1)N1CCCc2ccccc21 | 22.2
COc1cc(/C=C2\SC(=O)N(c3ccc(Cl)cc3)C2=O)cc([N+](=O)[O-])c1O | 10.5
CC(C)(C)n1ncc2c(=O)n(Cc3ccc(Cl)c(Cl)c3)cnc21 | 12.7

Five successive records out of the list so far, for reference:
SMILES | Calb biofilm kill
Cc1c(NS(=O)(=O)c2cc(Br)cc3c2N(C(=O)C2CC2)CC3)c(=O)n(-c2ccccc2)n1C | 8.2
CCCCc1ccc(NC(=O)CC(C)(C)C)cc1 | 0.4
CCOC(=O)/C(=N/Nc1ccccc1)N1CCCc2ccccc21 | 22.2
COc1cc(/C=C2\SC(=O)N(c3ccc(Cl)cc3)C2=O)cc([N+](=O)[O-])c1O | 10.5
CC(C)(C)n1ncc2c(=O)n(Cc3ccc(Cl)c(Cl)c3)cnc21 | 12.7

Next part:
SMILES | Calb biofilm kill
CC1(C)C(C=C(Cl)Cl)C1C(=O)N(Cc1cccc(Cl)c1)C1CCS(=O)(=O)C1 (stereo unspecified) | 11.1
CCCCC(CCC(=O)O)(C(=O)OCC)c1csc(Nc2ccc(OCC)cc2)n1 (stereo unspecified) | 18.6
Cc1cccc(NC(=S)NC(C)(C)CC(C)(C)C)c1 | 10.5
Nc1c([N+](=O)[O-])c(=O)oc2ccccc12 | 7.3
NC(=O)NC(=O)CSc1nc(C2CCCCC2)n(-c2ccccc2)n1 | 19.4
CCc1nnc(NC(=O)CSc2nc(-c3ccccc3)nc3ccccc23)s1 | 14.6
c1ccc(OCCSc2nc3ccccc3[nH]2)cc1 | 13.6
CCOC(=O)Cc1csc(N/N=C/c2ccccc2)n1 | 10.8
COc1c(Cl)cc(Cl)cc1C(=O)Nc1ccc(CN2CCCCC2)cc1 | 17.9
Cc1ccc(-n2nc(C(=O)c3ccccc3)n3c(=O)c(Cc4ccccc4)nnc23)cc1 | 8.9
COc1ccc(S(=O)(=O)Nc2ccc(-n3cccc3)cc2)cc1 | 0.6
Cc1cc(C)nc(SCc2ccc(C(=O)N/N=C3\CC(C)CC(C)(C)C3)cc2)n1 (stereo unspecified) | 9.3
O=C(CO/N=C/c1ccccc1Cl)N1CCCc2ccccc21 | 17.9
CCOCCCN1CN(Cc2ccco2)CNC1=S | 20.0
CCOC(=O)N1CCN(C(=O)CCNS(=O)(=O)c2ccc3c(c2)c(=O)n(C)c(=O)n3C)CC1 | 8.7
CCOC(=O)c1ccc2nc(C)c(CC)c(Cl)c2c1 | -7.8
Cc1cccc(C)c1NS(=O)(=O)c1ccc2c(c1)C(=O)c1ccccc1C2=O | 18.1
Cc1cccc(C(=O)Nc2ccccc2N2CCN(c3ccc(F)cc3)CC2)c1 | 11.6
CC(C)CN(C(=O)CSc1nncn1-c1ccccc1)c1c(N)n(CC(C)C)c(=O)[nH]c1=O | 22.1
Cc1cccc(OCc2nc(-c3ccc(Br)o3)no2)c1 | -3.2

Shown field by field: part of the list above.
CCOC(=O)N1CCN(C(=O)CCNS(=O)(=O)c2ccc3c(c2)c(=O)n(C)c(=O)n3C)CC1
  Calb biofilm kill: 8.7
CCOC(=O)c1ccc2nc(C)c(CC)c(Cl)c2c1
  Calb biofilm kill: -7.8
Cc1cccc(C)c1NS(=O)(=O)c1ccc2c(c1)C(=O)c1ccccc1C2=O
  Calb biofilm kill: 18.1

New compounds follow.
SMILES | Calb biofilm kill
CC(Sc1n[nH]c(N)n1)C(=O)Nc1ccc(Cl)cn1 (stereo unspecified) | 8.9
O=C(C1CCCO1)N(c1ccc(F)cc1)C1C=CS(=O)(=O)C1 (stereo unspecified) | 7.5
CCN(CC)CCN1C(=O)Cn2c(C)c(C)c3cccc1c32 | 17.2
N=C1C(c2ccccc2)=C(O)CN1CCCO | 9.5
O=C(Nc1nnc(SCc2ccccn2)s1)C1CC(=O)N(c2ccccc2)C1 (stereo unspecified) | 27.1
CNc1nc(-c2ccccc2)cc(C)c1S(C)(=O)=O | 6.5
COc1cc(OC)cc(C(=O)N[C@H](C(=O)OCC(N)=O)C(C)C)c1 | 13.0
COC(=O)CCCC1=CC2=CC(=O)C(C)(OC(=O)c3cccs3)C(=O)C2=CN1c1ccc(OC)cc1 (stereo unspecified) | 16.7
